Screening data (PubChem)
Rce1 inhib = yeast Ras-converting enzyme inhibition; Q03530; yeast membranes, quenched prenylated peptide cleavage fluorescence; calls only; 290,000 compounds, 0.27% hits;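 active = fall in fluorescence gain of 50% or more versus controls, with final raw signal at or below 3038400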;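 note: plate controls were neutral control wells for no effect and wells lacking membranes for full effect; tested at 10 µM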
Yeast UUG start = alters start codon recognition fidelity in yeast; activity score, % at 18.7 µM; 350,000 compounds, 0.13% hits; AID 602363; S. cerevisiae UUG-firefly luciferase reporter, luminescence/redox ratio;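 active = replicate mean at a twofold rise or more, about +100% in these data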;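 note: firefly luciferase made from a UUG start codon reports start codon fidelity; reporter light over untreated wells divided by growth signal over untreated wells; some hits fall short of that in this replicate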
Env fusion inh = blocks HIV Env-driven cell-cell fusion; 360,000 compounds, 1.1% hits; inhibition, % at 12.3 µM; AID 651610; HeLa-JRFL Env/CEM21 cell fusion, luciferase;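 active = mean replicate inhibition score of at least 50 and every replicate individually at or above 50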;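 note: 0% = plate neutral controls and 100% = maraviroc near 300 nM; one replicate is shown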
CSC inhib = cancer stem cell inhibition | inhibition, % at 7.5 µM | cancer stem cell-like cells viability, luminescence | 300,000 compounds, 1.1% hits | AID 2717;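 active = mean at 75% or more and at least half the replicates too; tested in HMLE shEcad cells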;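 note: 0% = median of negative and 100% = median of positive control wells; the first replicate is given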
PABP polyA inh = blocks human PABP binding to poly(A) RNA | P11940 | fluorescence polarization | inhibition, % at 35 µM | 290,000 compounds, 1% hits | AID 2014;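 active = 50% or more with normal probe brightness, or confirmed in later tests; about a fifth of its hits are not listed in these tables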;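 note: calls also rest on retests at 20 µM and on dose response follow-up; controls were probe without protein and protein plus probe with vehicle; some compounds called inactive have numbers as strong as hits; many hits fall short of the cut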
Target sequence (P11940 whole entry, looked up): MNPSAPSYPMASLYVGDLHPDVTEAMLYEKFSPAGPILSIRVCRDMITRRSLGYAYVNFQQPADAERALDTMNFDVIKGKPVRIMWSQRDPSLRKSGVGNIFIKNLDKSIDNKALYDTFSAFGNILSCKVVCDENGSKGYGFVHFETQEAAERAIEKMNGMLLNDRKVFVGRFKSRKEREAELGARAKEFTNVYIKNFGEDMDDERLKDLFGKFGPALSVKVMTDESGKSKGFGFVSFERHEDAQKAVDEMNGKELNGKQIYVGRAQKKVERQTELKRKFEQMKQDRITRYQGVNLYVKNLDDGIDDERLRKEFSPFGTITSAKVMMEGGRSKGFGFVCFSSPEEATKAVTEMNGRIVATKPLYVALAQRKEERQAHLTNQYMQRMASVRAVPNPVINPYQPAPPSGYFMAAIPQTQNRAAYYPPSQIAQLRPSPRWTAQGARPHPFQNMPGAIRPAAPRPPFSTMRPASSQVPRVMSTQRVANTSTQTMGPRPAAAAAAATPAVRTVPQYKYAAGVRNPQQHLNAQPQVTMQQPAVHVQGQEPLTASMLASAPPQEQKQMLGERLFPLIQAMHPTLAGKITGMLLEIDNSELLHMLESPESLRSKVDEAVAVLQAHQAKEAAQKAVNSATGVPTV
eIF4H FP inh = inhibitors of RNA binding by human eIF4H. 290,000 compounds, 0.94% hits. inhibition, % at 35 µM. eIF4H fluorescence polarization binding assay. AID 2012. Q15056;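 active = 50% or more with normal probe brightness, or confirmed in later tests; about a fifth of its hits are not listed in these tables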;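 note: calls also rest on retests at 20 µM and on dose response follow-up; 0% = protein and probe with vehicle and 100% = probe without protein; strong numbers were not always called active; many hits fall short of the cut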
MT1-MMP act inh = blocks activation of human MT1-MMP | HT1080 RFP-PRO-GFP cells, GFP/RFP ratio fluorescence, overnight; percent of plate control window, DMSO zero | P50281 | 360,000 compounds, 0.061% hits | GFP/RFP ratio change, % at 20 µM | AID 651647;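 active = GFP/RFP ratio change of at least 30% with cell ATP level not reduced by more than half and red fluorescence within 50% of control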; note: strong numbers were not always called active
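Assay system – RFP-PRO-GFP reporter HT1080 cells · Compound dosing – single dose of 20 µM compound, 1% DMSO final · Incubation – overnight compound exposure at 37 °C · Measure – GFP/RFP fluorescence ratio · Benchmarks – DMSO wells and RFP-L50D-GFP cells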
eIF4H FP inh retest = recorded beside eIF4H FP inh, whose call it bears; inhibition, %; compound at 20 µM; confirmation average;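 mean of two retest wells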
PABP polyA inh retest = further read-out of PABP polyA inh, marked with its call; inhibition, %; compound at 20 µM; confirmation repeats;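 mean of two retest wells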
MT1-MMP act inh RFP = second read-out of MT1-MMP act inh, no call of its own (marks repeat the call); RFP signal change, %; measured here: RFP expression control read;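 0 = vehicle wells; hits needed this value within 50% of zero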
An asterisk follows results filed as active; & = joins results of further samples; [ ] = remark or other dose. This is a subset; rates above refer to the full screens.

For CCOCCCn1c(=S)[nH]c2cc(C(=O)NCC(OC)OC)ccc2c1=O the results were Rce1 inhib inactive, Yeast UUG start -12, Env fusion inh -3, CSC inhib 2, PABP polyA inh 3, eIF4H FP inh -6, MT1-MMP act inh 3 and MT1-MMP act inh RFP 2.
COc1cc(OC)cc(C(=O)N2CCN(C3CCCCC3)CC2)c1 was read as Yeast UUG start -13, Env fusion inh -6, CSC inhib 1, PABP polyA inh 1, eIF4H FP inh 8, MT1-MMP act inh -4 and MT1-MMP act inh RFP 1.
`CCOc1ccc(NC(=S)Nc2cccc3cnccc23)cc1` gave Rce1 inhib inactive, Yeast UUG start -24, Env fusion inh 3, CSC inhib -4, PABP polyA inh -5, eIF4H FP inh 16, MT1-MMP act inh -6 and MT1-MMP act inh RFP -8.
Screening Cc1ccc(S(=O)(=O)NCCC(=O)Nc2ncccc2O)cc1C returned Rce1 inhib inactive, Env fusion inh 10, CSC inhib -12, MT1-MMP act inh 2 and MT1-MMP act inh RFP 4.
Cc1cc(C(=O)N/N=C2/CC(C)CC(C)(C)C2)c(C)o1 (stereo not drawn) was read as Rce1 inhib inactive, Env fusion inh -11, CSC inhib -8, PABP polyA inh 11, eIF4H FP inh 3, MT1-MMP act inh -3 and MT1-MMP act inh RFP 3.
`CCO[C@H]1OC(C(=O)NCc2ccccc2)=C[C@@H](C)[C@@H]1CCCO` gave Rce1 inhib inactive, Yeast UUG start -13, Env fusion inh -5, CSC inhib -4, PABP polyA inh 4, eIF4H FP inh -4, MT1-MMP act inh 6 and MT1-MMP act inh RFP 1.
Screening CC(C)(C)C(=O)Nc1ccc(/C=C/C(=O)c2ccco2)cc1 returned Rce1 inhib inactive, Yeast UUG start -21, Env fusion inh -42, CSC inhib 5, PABP polyA inh 7, eIF4H FP inh 8, MT1-MMP act inh -6 and MT1-MMP act inh RFP -4.
`CC(=O)n1cc(/C=N/NC(=O)c2ccccc2Cl)c2ccccc21` gave Rce1 inhib inactive, Yeast UUG start -2, CSC inhib -4, PABP polyA inh 6, eIF4H FP inh -2, MT1-MMP act inh -2 and MT1-MMP act inh RFP -3.
For CCCCn1c(SCC(=O)NCc2ccco2)nnc1-c1ccoc1C the results were Rce1 inhib inactive, Yeast UUG start -16, CSC inhib 8, PABP polyA inh 29, eIF4H FP inh 15, MT1-MMP act inh -6 and MT1-MMP act inh RFP -1.
COc1cccc(-c2cc(C(=O)Nc3ccccc3)c3ccccc3n2)c1 was read as Rce1 inhib inactive, Yeast UUG start 0, Env fusion inh -3, CSC inhib -3, MT1-MMP act inh 2 and MT1-MMP act inh RFP -3.
Screening N#C/C(=C\c1c[nH]c2ccccc12)C(=O)Nc1ncc(Cc2ccc(Cl)cc2Cl)s1 returned Rce1 inhib inactive, Env fusion inh -3, CSC inhib 58, PABP polyA inh 5, eIF4H FP inh 39, MT1-MMP act inh 3 and MT1-MMP act inh RFP -3.
For COc1ccc(CCNC(=O)c2cccnc2)cc1OC the results were Rce1 inhib inactive, Yeast UUG start -7, Env fusion inh -5, CSC inhib -2, PABP polyA inh 8, eIF4H FP inh -3, MT1-MMP act inh 6 and MT1-MMP act inh RFP 5.
For COC(=O)CSc1nnc(SCc2ccccc2)s1 the results were Rce1 inhib inactive, CSC inhib 0, PABP polyA inh -1, eIF4H FP inh -7, MT1-MMP act inh -2 and MT1-MMP act inh RFP 1.
COn1c(-c2ccccc2)nc2c1CCc1c-2no[n+]1[O-] was read as Rce1 inhib inactive, Yeast UUG start -9, CSC inhib 6, PABP polyA inh 6, eIF4H FP inh -11, MT1-MMP act inh 2 and MT1-MMP act inh RFP -3.
`Cc1cnn(C(=O)c2cc(-c3ccccn3)nc3ccc(Cl)cc23)c1` gave Rce1 inhib inactive, Env fusion inh 3, CSC inhib -3, PABP polyA inh 57, eIF4H FP inh 97, MT1-MMP act inh -3, eIF4H FP inh retest 42, PABP polyA inh retest 36 and MT1-MMP act inh RFP 2.
O=C(NCC1CCCO1)C1CCN(C2CCN(Cc3ccco3)CC2)CC1 (stereo not drawn) was read as Rce1 inhib inactive, Yeast UUG start -10, Env fusion inh -7, CSC inhib -2, PABP polyA inh 14, eIF4H FP inh -11, MT1-MMP act inh -6 and MT1-MMP act inh RFP 0.
For COc1ccc(NC(=O)CS(=O)CC(=O)Nc2ccc(OC)c(OC)c2)cc1 (stereo not drawn) the results were Rce1 inhib inactive, Yeast UUG start -13, Env fusion inh -109, CSC inhib -7, PABP polyA inh -3, eIF4H FP inh -1, MT1-MMP act inh 5 and MT1-MMP act inh RFP 2.
CCc1[nH]nc(C(=O)N2CCCC(C(=O)c3cccc(OC(C)C)c3)C2)c1C (stereo not drawn) was read as Rce1 inhib inactive, Yeast UUG start -13, Env fusion inh -2, CSC inhib 9, PABP polyA inh -6, eIF4H FP inh -5, MT1-MMP act inh 0 and MT1-MMP act inh RFP -8.
`C[C@H]1C=C(C(=O)NCc2nc3ccccc3[nH]2)O[C@@H](OCCCCO)C1` gave Rce1 inhib inactive, Yeast UUG start -8, Env fusion inh -8, CSC inhib 7, MT1-MMP act inh -5 and MT1-MMP act inh RFP 4.
Cc1nc(CCNC(=O)COc2ccccc2)cs1 was read as Rce1 inhib inactive, Yeast UUG start -13, Env fusion inh -55, CSC inhib 3, PABP polyA inh 10, eIF4H FP inh 27, MT1-MMP act inh -1 and MT1-MMP act inh RFP 7.
O=C(NCCO)c1ccc2nc(Cc3cccc(Cl)c3)oc2c1 was read as Rce1 inhib inactive, Yeast UUG start -6, Env fusion inh 7, CSC inhib -9, PABP polyA inh 2, eIF4H FP inh -7, MT1-MMP act inh 1 and MT1-MMP act inh RFP 1.
Screening COc1ccc(S(=O)(=O)N2CCC(C(=O)N[C@H](C(=O)N3CCCC3)C(C)C)CC2)cc1 returned Rce1 inhib inactive, Yeast UUG start 20, Env fusion inh -10, CSC inhib -7, MT1-MMP act inh 2 and MT1-MMP act inh RFP 2.
For O=C(Cn1cc(C(F)(F)F)ccc1=O)N1CCc2ccccc2C1 the results were Yeast UUG start -10, Env fusion inh 1, MT1-MMP act inh -1 and MT1-MMP act inh RFP 3.
For CCCCNc1nc(CC(C)=O)ns1 the results were Rce1 inhib inactive, Yeast UUG start -19, Env fusion inh -20, CSC inhib -2, PABP polyA inh 1, eIF4H FP inh 8, MT1-MMP act inh 2 and MT1-MMP act inh RFP 2.

The final two entries of the section above open the next one.
For O=C(Cn1cc(C(F)(F)F)ccc1=O)N1CCc2ccccc2C1 the results were Yeast UUG start -10, Env fusion inh 1, MT1-MMP act inh -1 and MT1-MMP act inh RFP 3.
For CCCCNc1nc(CC(C)=O)ns1 the results were Rce1 inhib inactive, Yeast UUG start -19, Env fusion inh -20, CSC inhib -2, PABP polyA inh 1, eIF4H FP inh 8, MT1-MMP act inh 2 and MT1-MMP act inh RFP 2.
Screening Clc1ccc(-c2csc3ncnc(N4CCc5ccccc5C4)c23)cc1 returned Rce1 inhib inactive, Env fusion inh -14, CSC inhib 44, PABP polyA inh 10, eIF4H FP inh -2, MT1-MMP act inh -18 and MT1-MMP act inh RFP -18.
Screening Cc1cccc(N2CCN(C(=O)Cc3c(C(=O)O)[nH]c4ccc(Cl)cc34)CC2)c1C returned Rce1 inhib inactive, Yeast UUG start -4, CSC inhib 14, PABP polyA inh 10, eIF4H FP inh 0, MT1-MMP act inh 12 and MT1-MMP act inh RFP 4.
Screening COc1cc(N=c2ssnc2Cl)c(OC)cc1Cl returned Rce1 inhib inactive, Yeast UUG start -27&-28, Env fusion inh -3&-66, CSC inhib 23&8, PABP polyA inh 14, eIF4H FP inh -2, MT1-MMP act inh 4&4 and MT1-MMP act inh RFP 3&4.
`CC(C)n1nccc1N(Cc1ccc(Br)cc1)S(=O)(=O)c1ccccc1` gave Rce1 inhib inactive, Yeast UUG start 23, Env fusion inh 16, PABP polyA inh 16, eIF4H FP inh 7, MT1-MMP act inh -3 and MT1-MMP act inh RFP -6.
`CN(CC(=O)Nc1ccc(Cl)cc1)C(=O)CCc1c[nH]c2ccccc12` gave Rce1 inhib inactive, Yeast UUG start -1, Env fusion inh 4, CSC inhib 6, PABP polyA inh -1, eIF4H FP inh -12, MT1-MMP act inh 2 and MT1-MMP act inh RFP 1.
Screening O=C(N/N=C/c1ccc2c(c1)OCO2)c1cc(-c2ccccc2)nc2ccccc12 returned Rce1 inhib inactive, Env fusion inh 11, CSC inhib 41, PABP polyA inh 7, eIF4H FP inh 4, MT1-MMP act inh 1 and MT1-MMP act inh RFP -1.
For COc1ccc(NC(=S)N(Cc2cccnc2)Cc2ccco2)cc1 the results were Rce1 inhib inactive, Env fusion inh -3, CSC inhib -22, PABP polyA inh -10, eIF4H FP inh -11, MT1-MMP act inh 2 and MT1-MMP act inh RFP 1.
O=C(NCCC(=O)N1CCN(c2ccccc2O)CC1)c1ccc(Br)cc1 was read as Rce1 inhib inactive, Yeast UUG start 22, Env fusion inh 0, CSC inhib 7, MT1-MMP act inh -3 and MT1-MMP act inh RFP 2.
Screening CCN1CCN(C(=O)c2cc3nc(-c4ccccc4)cc(C(F)(F)F)n3n2)CC1 returned Rce1 inhib inactive, Yeast UUG start -26, CSC inhib 6, PABP polyA inh -3, eIF4H FP inh -6, MT1-MMP act inh 10 and MT1-MMP act inh RFP 6.
NCCNC(=O)c1c(O)c2cccc3c2n(c1=O)CCC3 was read as Rce1 inhib inactive, Yeast UUG start 9, Env fusion inh -7, PABP polyA inh 30, eIF4H FP inh -5, MT1-MMP act inh -4 and MT1-MMP act inh RFP -1.
`C[C@@H]1CCCCO[C@H](CN(C)C(=O)Nc2ccc(C(F)(F)F)cc2)[C@@H](C)CN([C@H](C)CO)C(=O)c2cc(NC(=O)Nc3ccc4c(c3)OCO4)ccc2O1` gave Yeast UUG start -6&-2, Env fusion inh 6[16.7 µM], MT1-MMP act inh 8 and MT1-MMP act inh RFP -4.
For CCOC(=O)c1cn(Cc2c(C)c(C)c(C)c(C)c2C)nn1 the results were Rce1 inhib inactive, Yeast UUG start -11, CSC inhib 1, PABP polyA inh -10, eIF4H FP inh 1, MT1-MMP act inh 4 and MT1-MMP act inh RFP -9.
For O=C(COC(=O)/C=C/c1cc(Br)ccc1F)Nc1ccc2[nH]c(=O)[nH]c2c1 the results were Rce1 inhib inactive, Yeast UUG start -4, Env fusion inh -75, CSC inhib -11, MT1-MMP act inh 5 and MT1-MMP act inh RFP 4.
`COc1cc([N+](=O)[O-])cc(/C=N/NC(=O)c2cncc(Br)c2)c1O` gave Rce1 inhib inactive, Yeast UUG start -24, Env fusion inh 10, CSC inhib 3, PABP polyA inh -4, eIF4H FP inh 7, MT1-MMP act inh -3 and MT1-MMP act inh RFP -9.
`CSCc1nc2scc(-c3ccccc3)c2c(=O)[nH]1` gave Rce1 inhib inactive, Env fusion inh -14, PABP polyA inh 16, eIF4H FP inh 0, MT1-MMP act inh 0 and MT1-MMP act inh RFP -5.
O=C(CCC(=O)c1cccs1)NCc1ccncc1 was read as Rce1 inhib inactive, Yeast UUG start -14, Env fusion inh 1, CSC inhib 7, PABP polyA inh -13, eIF4H FP inh -5, MT1-MMP act inh -1 and MT1-MMP act inh RFP -1.
Screening Cc1[nH]n(C(N)=S)c(=O)c1N=Nc1ccc(Br)cc1 returned Rce1 inhib inactive, Yeast UUG start -21, Env fusion inh -59, CSC inhib 8, PABP polyA inh 3, eIF4H FP inh -5, MT1-MMP act inh 1 and MT1-MMP act inh RFP -4.
`Cc1ccc(NC(=O)c2ccoc2C)cc1C` gave Rce1 inhib inactive, CSC inhib 9, PABP polyA inh 9, eIF4H FP inh 1, MT1-MMP act inh 1 and MT1-MMP act inh RFP 0.
Screening CCOc1cc(/C=N/NC(=O)c2ccncc2)cc(Cl)c1OS(C)(=O)=O returned Rce1 inhib inactive, Yeast UUG start -5, CSC inhib 4, PABP polyA inh 4, eIF4H FP inh 4, MT1-MMP act inh 3 and MT1-MMP act inh RFP -5.
